Bioassay records (PubChem)
HIV TAR-Tat: TAR RNA-Tat peptide displacers, HIV-1, primary screen, biochemical, FRET, FAM/TAMRA-labeled Tat; z-score (test concentration not listed); hit rate 0.6% among 100,000; HIV-1 TAR RNA, Tat peptide displacement FRET; active compounds read high;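 further: score is relative to mean and SD of negative controls; some compounds called inactive have numbers as strong as hits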
CDC25B CDK2 inh: primary biochemical HTRF screen for blockers of M-phase inducer phosphatase 2 binding to CDK2/cyclin A | HTRF CDC25B-CDK2/CyclinA binding, anti-His/anti-Flag; active compounds read high | AID 1259370, 2018 | hit rate 0.72% among 94,000 | z-score (concentration not given with the values);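 further: score is relative to mean and SD of negative controls; strong numbers were not always called active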
Active calls of the source: *; nt = no result given.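 How the source made its calls: active means z-score from 3 up in half or more of its runs; inactive means the rest.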 Compounds as they come; overall some 0.9% were active at least once.

Below each SMILES – HIV TAR-Tat	CDC25B CDK2 inh
O=C(Nc1cccc(-c2cnco2)c1)c1ccc(C(F)(F)F)cc1
  nt	-2.8
COc1ccc2c(C)c(C)c(=O)oc2c1
  nt	-0.58
Cc1ccc(-n2ncc3c(NCCCN(C)C)ncnc32)cc1C
  2.13	nt
C#CCN1CC(OCC)=CC1=O
  nt	-1.4
CCNc1cc(N)[n+](CC)c2n[nH]c(/N=C/c3cc(Cl)cc(Cl)c3O)c12
  nt	0.41
Cc1nc2sccn2c(=O)c1S(=O)(=O)Nc1ccc(N2CCN(S(C)(=O)=O)CC2)cc1
  2.55	-0.47
CC(C)c1nc(NCc2ccccc2)c(C#N)c2c1COC(C)(C)C2
  1.34	-1.08
CC(=O)Oc1ccc2nc(-c3ccccc3Br)oc(=O)c2c1
  nt	1.51
Cn1cnc(S(=O)(=O)NCc2ccc(Cl)cc2)c1
  1.38	nt
Cn1cc(-c2cc3n(n2)CCC(=O)N3CCCC(=O)N2CCCCC2)c2ccccc21
  1.19	nt
Cc1cccc(N2CCN(CCNc3nc4ccccc4c4nc(-c5cccnc5)nn34)CC2)c1C
  0.52	0.51
Cc1ccc(-c2onc(C)c2C)cc1S(=O)(=O)N(C)C1CCCCC1
  0.78	nt
O=C(CSc1nc2ncccc2o1)Nc1cccc(Cl)c1
  -1.03	nt
Cc1nc(N2CCCCC2)cc(N2CCN(C(=O)c3ccco3)CC2)n1
  -1.45	-0.81
COc1cc(OC)c(NC(=O)N2CCc3cc(S(=O)(=O)N4CCC(C)CC4)ccc32)cc1Cl
  0.3	-0.15
Cc1ccc(-c2cc(NC3=CC(=O)CC(C)(C)C3)n[nH]2)cc1
  1.53	-0.5
CCOc1ccc(N(C(C)=O)C2C=CS(=O)(=O)C2)cc1 (configuration not stated)
  nt	-2.69
CSc1nc2c(sc3nc(-c4ccccc4)c4c(c32)CC(C)(C)OC4)c(=O)[nH]1
  0.74	-0.35
Cc1cc(S(=O)(=O)Nc2cc3[nH]c(=O)[nH]c3cc2C)ccc1F
  1.38	nt
CCOC(=O)c1ccc2oc(=O)[nH]c2c1
  1.94	nt
O=c1c(-c2cc(O)c(O)c(O)c2)coc2cc(O)c(O)c(O)c12
  26*	nt
Cc1ccc(-c2c(NC3CCCC(C)C3C)c(=O)c2=O)cc1C (configuration not stated)
  1.92	nt
CCOc1ccc(C2=NC(c3ccccc3)=Nc3ccc(OC)cc3N2)cc1
  -0.54	-1.04
O=C(COc1ccccc1)Nc1ccc(OCc2cc(=O)n3[nH]cnc3n2)cc1
  0.76	nt
CC(C)c1ccc(OCC(=O)Nc2nnc3n2CCS3)cc1
  0.11	nt
S=c1nc(-c2ccccc2)n(Cc2ccccn2)c2c1CCCC2
  0.64	0.56
CCC(=O)OCc1cc(=O)n2oc(C)cc2n1
  0.27	nt
COCc1cc(C)nc(N2CCN(Cc3ccccc3)CC2)c1C#N
  1.72	-1.67
Fc1ccc(-c2cc3ncc4c(n3n2)-c2ccccc2OC4)cc1
  1	0.85
CCOC(=O)c1nnsc1Nc1ccc(OCC)cc1
  0.26	nt
N#Cc1c(N2CCSCC2)nsc1-c1ccccc1Cl
  nt	-4.68
CCC1CN(C(=O)N2CCC(C(=O)N3CCN(C(=O)c4ccco4)CC3)CC2)c2ccccc2O1 (configuration not stated)
  1.24	nt
CCCN(CCC)S(=O)(=O)c1ccc(C(=O)Nc2ccc(F)cc2)cc1
  nt	-2.1
O=C(O)COc1ccc(/C=C/c2nc(-c3ccccc3O)n(-c3ccccc3)n2)cc1
  -0.46	-1.96
Cc1ccc(CCNS(=O)(=O)c2cc(Br)cnc2N)cc1
  1.28	-1.29
NC(=O)c1nc(-c2ccccn2)nc2c1[nH]c(=O)n2-c1ccc(Cl)cc1
  -0.13	nt
COc1ccc(-c2csc(Nc3c(C)n[nH]c3C)n2)cc1
  -0.45	-0.3
COc1ccc(Oc2ccccc2OC)cc1
  nt	-1.03
CC(C)(C)n1cnc2cc(NCc3ccco3)ccc21
  1.44	0.72
CCN(CC)CCNC(=O)C(=O)Nc1c2c(nn1-c1ccc(F)cc1)CSC2
  2.15	nt

Molecules from the list above that contain fluorine, in the order listed:
Below each SMILES – HIV TAR-Tat	CDC25B CDK2 inh
O=C(Nc1cccc(-c2cnco2)c1)c1ccc(C(F)(F)F)cc1
  nt	-2.8
Cc1cc(S(=O)(=O)Nc2cc3[nH]c(=O)[nH]c3cc2C)ccc1F
  1.38	nt
Fc1ccc(-c2cc3ncc4c(n3n2)-c2ccccc2OC4)cc1
  1	0.85
CCCN(CCC)S(=O)(=O)c1ccc(C(=O)Nc2ccc(F)cc2)cc1
  nt	-2.1
CCN(CC)CCNC(=O)C(=O)Nc1c2c(nn1-c1ccc(F)cc1)CSC2
  2.15	nt

Next results
Below each SMILES – HIV TAR-Tat	CDC25B CDK2 inh
O=C(Nc1cccc(F)c1)c1cnc2sc(N3CCCC3)nn2c1=O
  0.12	nt
COc1cccc(C2NCc3c(sc4c3CCCC4)-n3cccc32)c1 (configuration not stated)
  1.06	0.01
CCc1nc(SCC(=O)Nc2ccc(Br)cc2)c2c(=O)n(C)c(=O)n(C)c2n1
  -0.81	nt
O=C1CCCN1CCCNc1nc(-c2cccc(Cl)c2)c2c(n1)-c1ccccc1OC2
  2.24	0.12
COc1ccc(OC)c(N(C)S(=O)(=O)c2ccc3c(c2)NC(=O)C(C)S3)c1 (configuration not stated)
  1.86	nt
CCn1c(=O)[nH]c(=O)c2c3c(sc21)COC(C)(C)C3
  0.2	-0.56
O=c1c(O)c(N2CCN(c3ccccn3)CC2)c1=O
  -1.19	nt
COc1ccc2cc(C(C)c3nc4ccccc4n3C)ccc2c1 (configuration not stated)
  2.27	-3.18
Cc1ccc(/C(O)=C2\C(=O)C(=O)N(c3nccs3)C2c2ccc(C)cc2)cc1 (configuration not stated)
  -0.34	-2.09
O=C(CN1C(=O)c2ccccc2S1(=O)=O)Nc1cc(Cl)ccc1Oc1ccccc1
  1.27	-3.38
O=C(CCC(=O)N1Cc2cccn2-c2ccccc21)N1CCN(c2ccc(F)cc2)CC1
  1.22	nt
CCN(Cc1nc(-c2ccc(OC)c(OC)c2)no1)S(=O)(=O)c1ccc(OC)cc1
  0.84	-2.21
Cc1ccc(C(N)=S)c(=O)[nH]1
  nt	-0.37
COc1ccc2c(c1)CCCC2=Nc1ccccc1C(F)(F)F
  nt	-2.21
CCOc1ccc(OCC)c(NS(=O)(=O)c2ccc3c(c2)CCCC(=O)N3)c1
  2.4	nt
COCC(C)NS(=O)(=O)c1ccc(N2CCCCS2(=O)=O)cc1 (configuration not stated)
  2.06	nt
Cc1cc(C)cc(OCCSc2nc(-c3ccco3)nc3cc(=O)[nH]n23)c1
  -0.81	nt
CCOC(=O)N1CCN(C(=O)C2c3cc(OC)c(OC)cc3C(=O)N3CCc4ccccc4C23)CC1 (configuration not stated)
  0.65	nt
CN1CCN(CCNC(=O)Cn2ncc3c4ccccc4n(C)c3c2=O)CC1
  -1.5	0.67
CN1CCN(CCCNC(=O)NC2COc3ccccc3C2)CC1 (configuration not stated)
  0.75	nt
c1ccc(-c2noc(C3CCCCC3)n2)nc1
  -0.25	1.78
NS(=O)(=O)c1cc([N+](=O)[O-])c(N2CCOCC2)s1
  nt	-1.04
Cc1cc(-c2ccc(S(=O)(=O)N3CCN(Cc4ccc5c(c4)OCO5)CC3)s2)on1
  0.68	nt
CCOC(=O)CNC(=O)CSc1nnc(Cc2cccn2C)n1C
  0.91	-1.13
COc1ccc(-c2noc(CNS(=O)(=O)c3ccc(OC)cc3)n2)cc1
  1.37	0.18
O=C(CSc1nc2c(c(=O)[nH]1)CCC2)Nc1cccc(O)c1
  2.01	-1.68
Cc1ccccc1-c1c2c(=O)n(C)c(=O)n(C)c2c2n1-c1ccccc1NC2c1ccco1 (configuration not stated)
  2.03	-1.65
CN1CCN(c2nc3nonc3nc2N2CCN(C)CC2)CC1
  -2.36	-0.06
COc1cc(C2C3=C(CC(C)(C)CC3=O)Nc3ncnn32)ccc1OCCC(C)C (configuration not stated)
  -1.66	-1.32
Brc1csc(CN2CCc3nc(N4CCN(c5ccccc5)CC4)ncc3C2)c1
  -1.64	nt
O=C(CSC1=Nc2ccccc2C2=NC(c3ccccc3)C(=O)N12)NCCc1ccccc1 (configuration not stated)
  0.35	nt
C=CCN(C(=O)CSc1nc2ncccc2o1)c1ccccc1
  1.31	nt
CC1(C)CC(=O)C(Sc2ncnc3nc[nH]c23)C(=O)C1
  nt	-0.42
Cc1cc(C)cc(C(=O)NCCc2cc3cc(C)c(C)cc3[nH]c2=O)c1
  nt	-2.62
Cc1nc(N(C)C)ncc1C(=O)NCCc1cccs1
  1.76	nt
Cc1ccc(S(=O)(=O)Nc2cc(Sc3nc(C)cc(C)n3)c(O)c3ccccc23)cc1
  nt	-2.33
CCOc1ccc(N2C(=O)C3C(C(=O)OC)=NN(C(C)=O)C3C2=O)cc1 (configuration not stated)
  1.22	-0.69
Fc1ccc(Nc2cnnc3c(Cl)cccc23)cc1
  0.04	nt
CCOc1ccc(Br)cc1/C=N\NC(=O)c1cc(C)[nH]n1
  nt	-1.99
Cn1c(=O)[nH]c(=O)c2c1nc(NCCc1ccccc1)n2CCO
  1.02	-0.85
Cc1c(C(=O)NC(C)C)sc2ncnc(N(C)C3CCCCC3)c12
  1.24	nt
C[C@@H]1CCN(C(=O)C(CCCN=C(N)N)NS(=O)(=O)c2cccc3c2NC[C@H](C)C3)C(C(=O)O)C1 (some centres not stated)
  nt	-0.31
O=S(=O)(NC(c1c[nH]c2ccccc12)C(Cl)(Cl)Cl)c1ccc(Cl)cc1 (configuration not stated)
  nt	2.06
CC(=O)N1c2ccccc2NC2=C(C(=O)CC(C)(C)C2)C1c1cccc(F)c1 (configuration not stated)
  -0.19	-1.09
Cc1ccc(CNc2nc(N3CCCCC3)nc3c2cnn3C)cc1
  1.24	nt
CCCOc1cccc(C2c3c(oc4ccc(C)cc4c3=O)C(=O)N2c2ccccn2)c1 (configuration not stated)
  -0.78	0.05
O=C(Nc1ccc(F)c(Cl)c1)C1CCCN1S(=O)(=O)c1cccc2cccnc12 (configuration not stated)
  0.39	-0.28
CCOCCCNC(=O)C1CCCN1c1nn2c(=O)cc(C)nc2s1 (configuration not stated)
  1.62	0.59
COc1ccc(NC2c3ccccc3C(=O)N2c2ccc(Cl)cn2)cc1 (configuration not stated)
  -0.62	-1.21
O=C(CCCCCn1c(=S)[nH]c2cc3c(cc2c1=O)OCO3)N1CCN(c2ncccn2)CC1
  nt	-6.04

Remaining list, next part:
Below each SMILES – HIV TAR-Tat	CDC25B CDK2 inh
CN(C)CCCN1C(=O)C(O)=C(C(=O)c2ccco2)C1c1cccc(Br)c1 (configuration not stated)
  2.01	-2.55
CCN(CC)CCn1c(C)c(C)c2c1ncn1nc(-c3ccccc3Br)nc21
  1.28	-1.77
COc1cc(NS(=O)(=O)c2cc(Br)cc3c2N(C(=O)C2CC2)CC3)cc(OC)c1
  2.91	nt
CC1=NS(=O)(=O)c2cc(C(=O)NCc3cccnc3)ccc2N1CC(C)C
  1.46	nt
O=C(NCCCN1CCCC1=O)[C@@H](c1ccccc1)N1Cc2ccccc2C1=O
  0.6	-0.91
CCc1ccc(S(=O)(=O)c2c[nH]c3ccc(C)cc3c2=O)cc1
  0.86	-1.23
Cn1cccc1Cc1nnc(SCC(=O)Nc2ccccc2)n1C
  0.92	-0.05
CSc1cccc(NC(=O)C2CCCN(c3ncnc4c3nc3n4CCCCC3)C2)c1 (configuration not stated)
  0.11	nt
COc1ccc(-c2csnn2)cc1S(=O)(=O)Nc1ccccc1
  nt	1.23
Cc1ccc(C2N(c3cccc(Cl)c3)C(=O)C3CCCN32)o1 (configuration not stated)
  0.79	-0.34

One compound at a time (already shown):
Results for CCOc1ccc(C2=NC(c3ccccc3)=Nc3ccc(OC)cc3N2)cc1 → HIV TAR-Tat: -0.54; CDC25B CDK2 inh: -1.04
Results for Cn1cccc1Cc1nnc(SCC(=O)Nc2ccccc2)n1C → HIV TAR-Tat: 0.92; CDC25B CDK2 inh: -0.05

(continued)
Below each SMILES – HIV TAR-Tat	CDC25B CDK2 inh
CC(C)(C)NC(=O)CCSc1nc(-c2ccc3c(c2)OCO3)cc(C(F)(F)F)n1
  1.48	0.4
COC(=O)c1sccc1NC(=O)c1noc2c1COc1ccccc1-2
  nt	-0.88
Cc1ccc(Nc2ncnc3onc(-c4ccc(C)cc4)c23)cc1
  1.12	nt
COc1ccc(C2Oc3ccccc3C3CC(c4ccc(C)o4)=NN32)cc1OC (configuration not stated)
  -1.73	-1.1
Cc1cc(NC(=O)/C(C#N)=C/c2ccc(Cl)cc2Cl)no1
  nt	0.2
Cn1c(=O)c2c(-c3ccc(Br)cc3)n(-c3ccc(O)cc3)cc2n(C)c1=O
  1.09	-0.81
Cc1ccccc1Cn1c2ccccc2c2cnn(CC(=O)NCC3CCCO3)c(=O)c21 (configuration not stated)
  0.27	-0.86
CC(C)(C)NC(=S)Nc1ccc([N+](=O)[O-])cc1Cl
  nt	-2.17
O=C1OC2(CCCCC2)OC(=O)C1=Cc1ccoc1
  nt	0
COc1ccc(CC(=O)NCc2cc3ccccc3s2)cc1OC
  nt	1.05
O=C(Nc1cccc(Br)c1)Nc1nnc(N2CCCCC2)s1
  -0.64	-2.11
CCCCc1oc2ccccc2c1C(=O)c1cc(I)c(OCCN(CC)CC)c(I)c1
  1.33	0.34
CC1(C)S[C@@H]2[C@H](NC(=O)Cc3ccccc3)C(=O)N2[C@H]1C(=O)O
  -0.82	nt
